Biofilm kill mix – mixtures killing C. albicans biofilm. C. albicans biofilm persisters + clotrimazole, fluorescence viability; primary screen in compound mixtures of four per well. inhibition, % at 7.6 µM. hit rate 0.02% among 120,000. AID 1242;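 active means inhibition above 30.3% in the primary screen of four-compound pools, then above 30% when the compound was retested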;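 further: compounds exposed to preformed 24 h biofilms for 48 h; the number belongs to the whole pool; some results filed as inactive read as strong as hits; inactives centre near 12; 0% = biofilm with clotrimazole alone and 100% = kill control; retested singly at about 60 µM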
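Test system: C. albicans biofilms. Buffer or medium: RPMI/MOPS medium, pH 7.0. Timing: 48 h compound exposure at 37 °C. Technique: Alamar Blue fluorescence. Evaluation: percent inhibition of biofilm viability.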
Starred values were filed as active, the others as inactive. An excerpt (hit frequency here may not be typical).

SMILES | Biofilm kill mix
O=C(/C=C/c1ccc(Cl)cc1Cl)N(Cc1ccc(Cl)cc1)C1CCS(=O)(=O)C1 (stereo not given) | 21
O=C(CCN1C(=O)/C(=C/c2cccs2)SC1=S)NC1=NCCS1 | -1
CCOc1ccc(C(c2c(NC(=O)c3ccccc3)sc(C)c2C)N2CCN(C)CC2)cc1 (stereo not given) | 20
Cc1ccc(-c2nnn(CC(=O)N(CCN3CCOCC3)C(C(=O)NC(C)(C)C)c3ccc(C)o3)n2)cc1 (stereo not given) | 28
COc1cc(/C=C(/Sc2nnc(-c3ccc(F)cc3)o2)C(=O)O)ccc1OC(F)F | 2
CCN1CCS/C1=C/C=C/C1=[N+](CC)CCS1 | 9
O=C1c2ccccc2C(=O)N1OCc1ccccc1[N+](=O)[O-] | 12
Cc1ccc2nc(-c3ccc(N4C(=NC(=O)CCC(=O)O)SC5CS(=O)(=O)CC54)cc3)sc2c1 (stereo not given) | 12
CC1(C)CC(=O)C2=C(C1)OC(N)=C(C#N)[C@@H]2c1ccccc1[N+](=O)[O-] | 0
Cc1onc(-c2ccccc2Cl)c1C(=O)NC(=S)Nc1ccccc1F | 3
CCCCOc1ccc(CSC(=N)N)cc1Cl | 5
Cc1cc(=O)[nH]c2c1c(C)nn2C(C)(C)C | 11
O=C1c2ccccc2NC(c2cccnc2)N1c1ccccc1F (stereo not given) | 6
O=C(O)c1cc(NN=Nc2cccc([N+](=O)[O-])c2)cc([N+](=O)[O-])c1 | 15
Cc1ccc(S(=O)(=O)Oc2ccccc2/C=N/O)cc1 | 3
CC1=C/C(=N\OS(=O)(=O)c2ccccc2)C=CC1=O | 11
Cn1c(=O)c2c(nc(CN3CCOCC3)n2CCCc2ccccc2)n(C)c1=O | 9
CC(=O)N(Cc1ccccc1)Cc1nc2sc(C)c(C)c2c(=O)[nH]1 | 23
COc1cc2c(cc1OC)C(C)N(C(=O)c1c(-c3ccccc3)noc1C)CC2 (stereo not given) | 24
O=C(CC1(O)C(=O)c2ccccc2C1=O)c1ccccc1 | -6
COC(=O)C1=C(N)Oc2c(oc(CO)cc2=O)C1c1ccc(F)cc1 (stereo not given) | 19
Cc1ccc(SCc2nc(N)nc(Nc3ccccc3C)n2)c(C)c1 | 16
COc1ccc(/C=N/Nc2ncc(C(F)(F)F)cc2Cl)c(OC)c1OC | 17
COc1cc2c(cc1Cl)/C(=C\CCN(C)C)c1ccccc1S2 | 19
COC(=O)c1ccc2nc(-c3ccc(S(C)(=O)=O)cc3)cn2c1 | 11
(cont.)
SMILES | Biofilm kill mix
CCC(=O)Nc1nnc(CCc2ccccc2)s1 | 11
Cc1cc(NC(=O)c2sccc2C)n(-c2nc3ccccc3[nH]2)n1 | 3
CC1Cc2ccccc2N1C(=O)CSc1nccc(=O)[nH]1 (stereo not given) | 15
CC(=O)N1CC[n+]2c(-c3ccc([N+](=O)[O-])cc3)csc21 | 12
COc1cc(OC)cc(C(=O)Nc2ccc(S(=O)(=O)Nc3nc(C)cc(C)n3)cc2)c1 | -4
O=C(O)Cn1cc(C(=O)C(F)(F)F)c2ccccc21 | 18
CCCc1cc(=S)n2c([nH]c3ccccc32)c1C#N | 14
O=C(CCCOc1ccccc1)Nc1cccc([N+](=O)[O-])c1 | 8
COc1ccc(C(=O)/C=C/c2ccccc2)c(O)c1 | 6
O=c1[nH]cc(F)c(=O)[nH]1 | 14
CC(OC(=O)c1ccc(S(=O)(=O)N(C)C)cc1)C(=O)Nc1ccc(Cl)cn1 (stereo not given) | -14
CCOC(=O)c1ccc(NC(=O)Nc2cccc(C)n2)cc1 | 5
Cc1cc(NC(=O)CSc2nc(-c3ccco3)cc(C(F)(F)F)n2)no1 | 6
CC(=O)c1cccc(NC(=O)c2ccc3c(=O)n4c(nc3c2)CCCCC4)c1 | 8
Cc1c(-c2cccc(Cl)c2)nc2ccccc2c1C(=O)OCC(=O)N(C)C1CCS(=O)(=O)C1 (stereo not given) | 16
COC(=O)c1cc(C#N)c(=O)[nH]c1C | 12
CCOC(=O)C(=O)C1=C(N2CCOCC2)/C(=C\c2ccc(F)cc2)CC1 | 7
COC(=O)CC/C(=N/Nc1ccc(Cl)c(Cl)c1)C(=O)OC | 12
Oc1ccc(Br)cc1-c1ccn[nH]1 | 20
Fc1cccc(Cl)c1CSc1ccc(-c2cccnc2)nn1 | 14
CCCCCCCCCn1c2c(c(=N)c3c1CCC3)CCCC2 | 8
Cc1nc(N)c(CC(Br)CBr)c(Cl)n1 (stereo not given) | 33
COc1cc(/C=N/NC(=O)CCN2CCCCC2)ccc1O | 6
O=S(=O)(Nc1ccccc1O)c1ccc(Cl)nc1 | 23
CCOc1ccc(Cl)cc1/C=N/NC(N)=O | 15
Additional compounds.
SMILES | Biofilm kill mix
CC(C)N1CCC(NC(=O)Nc2ccc3c(c2)OCO3)CC1 | 53
N#CCCN(Cc1cccs1)C(=O)Nc1ccc(F)cc1 | 30
O=C(/C=C/c1ccc2c(c1)OCO2)NCc1cn2cc(Cl)ccc2n1 | 4
COc1ccc(NC(=O)COC(=O)C2CCC(C(C)(C)C)CC2)c([N+](=O)[O-])c1 (stereo not given) | 3
COc1ccc(NC(=S)N(CCCN2CCCC2)Cc2cccn2Cc2ccc(Cl)cc2)cc1Cl | 20
O=C(NCc1ccco1)/C(=C\c1ccco1)NC(=O)c1ccc(Br)o1 | -9
CCC(=O)Nc1ccc(NC(=S)NC(=O)/C=C/c2ccccc2)cc1 | 8
COc1ccc(C(C(=O)NC2CCCCC2)N(C(=O)CCl)c2ccc(C)cc2)cc1 (stereo not given) | 5
CCN(CC)S(=O)(=O)c1cccc(C(=O)N[C@H](C(=O)Nc2nc3ccccc3s2)C(C)C)c1 | 22
Cc1ccc(S(=O)(=O)NNC(=O)c2cnn(-c3ccccc3)c2C(F)(F)F)cc1 | 20
O=C(NCc1cn(-c2ccccc2)nc1-c1ccc(F)cc1)c1cccc([N+](=O)[O-])c1 | 13
C/C(CC(C)C)=N\NC(=O)Nc1ccccc1 | 9
Cc1ccc(NC(=O)Nc2cccc([N+](=O)[O-])c2)nc1 | 18
CC(C)(C)c1ccc(OC(=O)c2ccc(-n3cncn3)nc2)cc1 | 4
COc1ccc(CNC(=O)CCc2nc3cc(S(=O)(=O)N(C)C)ccc3n2C)cc1OC | -16
CCS(=O)(=O)N1N=C(c2ccccc2)CC1c1ccc2nccnc2c1 (stereo not given) | 6
C#CCOCCOCCOCCNc1nc(N2CCN(C(=O)[C@H]([C@@H](C)CC)n3cc(CCC(=O)O)nn3)CC2)nc(N2CCN(C(=O)[C@H](C)n3cc(CCCN=C(N)N)nn3)CC2)n1 | 10
COc1ccc(C(=O)NNC(=S)NC(=O)c2ccc(Br)o2)cc1OC | 11
O=C(Nc1cccc([N+](=O)[O-])c1)C(=O)N1CCCCC1 | 11
O=C(/C=C/c1ccc(Br)o1)NCCCN1CCOCC1 | 25
O=C(Cc1ccccc1)Nc1ccc(SC(F)F)cc1 | 26
CC1=C(C(=O)NC(C)CCc2ccccc2)C2(CCC(C)CC2)OC1=O (stereo not given) | 17
COc1ccc(NC(=S)Nc2cc(C(F)(F)F)ccc2F)cc1 | 12
O=C(Cn1nnc(-c2ccccc2)n1)NNC(=O)c1ccccc1 | 12
O=C(Nc1ccc(-c2ccc([N+](=O)[O-])cc2)cc1)c1ccccc1F | 15

Taken from the entries so far (2 entries):
SMILES | Biofilm kill mix
O=C(Cn1nnc(-c2ccccc2)n1)NNC(=O)c1ccccc1 | 12
O=C(Nc1ccc(-c2ccc([N+](=O)[O-])cc2)cc1)c1ccccc1F | 15

More results:
SMILES | Biofilm kill mix
C/C(=N\NC(=O)c1ccccc1)c1cc2cc([N+](=O)[O-])ccc2oc1=O | 12
COc1ccccc1C(=O)NCC1(c2ccccc2)CCCC1 | 10
O=C(Nc1cnn(Cc2ccc(Cl)c(Cl)c2)c1)C12CC3CC(CC(C3)C1)C2 | -7
COc1cc(OC)c2ccc(=O)oc2c1C(CC(=O)N1CCCC1)c1ccc2c(c1)OCO2 (stereo not given) | 22
COc1ccccc1NC(=O)/C=C/c1ccc(OC)c(S(=O)(=O)N2CCOCC2)c1 | 8
O=C(NNC(=O)c1ccccc1Br)c1ccccc1Cl | 14
CCCCS(=O)(=O)N1C2=NC(C(=O)OC)=C(C(=O)OC)[C@@H]3N(C)c4ccc(OC)cc4[C@]23C[C@H]1C(=O)OC | 17
COc1ccc(NCC(=O)N/N=C/C=C\c2ccccc2)cc1 | 20
O=C(CNC(=O)c1ccncc1)N/N=C/c1cccc([N+](=O)[O-])c1 | 5
O=C(CC(=O)NC1CCCCC1)N/N=C/c1ccccc1Cl | 13
CCOC(=O)c1ccc(NC(=O)c2nc[nH]c2C(=O)N2CCC(C)CC2)cc1 | 5
CC1(C)C2CCC1(C)C(NC(=O)/C=C/c1ccccc1)C2 (stereo not given) | 6
O=C(c1ccc2c3n(nc2c1)-c1ccccc1CO3)N1CCCCC1 | 17
CC(=O)c1c(O)c2ccccc2n(C2CCCCC2)c1=O | 14
Cc1cc(=O)[nH]c(SCC(=O)NN(c2ccccc2)c2ccccc2)n1 | 3
CN(C(=O)COC(=O)c1ccc(-c2ccc(O)cc2)cc1)C1CCS(=O)(=O)C1 (stereo not given) | 16
Cc1nc2c(C(=O)NCc3cccs3)cnn2c(C)c1Cc1ccc(F)cc1 | 5
CC1CCN(C(=O)C2CCN(S(=O)(=O)c3cccc4nsnc34)CC2)CC1 | 16
CCOc1ccccc1OCC(=O)N/N=C(\C)Cc1ccc(OC)cc1 | 13
CCc1nccn1-c1cc(C(C)(C)C)nc2c(-c3ccc(Cl)cc3)cnn12 | 2
Cc1nc(SCC(=O)Nc2ccc(OCc3ccccc3)cc2)n[nH]1 | 9
COc1ccc2cc(/C=N/NC(=O)c3ccc(CN(c4ccc(C)c(C)c4)S(C)(=O)=O)cc3)c(Cl)nc2c1 | 15
CCOC(=O)c1nc(NNC(C)=O)sc1C | 11
O=C(COc1ccccc1)NC(=S)N1CCc2ccccc21 | 17
O=C(CCNC(=O)Cn1cnc2ccccc2c1=O)NCC1CCCO1 (stereo not given) | 9
Next results follow.
SMILES | Biofilm kill mix
O=C(Nc1nc(-c2ccccn2)cs1)c1ccc2c(c1)OCCO2 | 21
COc1cccc2c(SCC(=O)N/N=C/c3ccccc3)cc(C)nc12 | 15
Cc1cc(N2CCN(C3CCCC3)CC2)n2c(nc3ccccc32)c1C#N | 15
O=C(O)c1ccc(NC(=O)c2cccc(N3C(=O)C4C5CCC(C5)C4C3=O)c2)cc1 (stereo not given) | 18
Cc1nc2ccccc2c(=O)n1NC(=O)CCC(=O)O | 10
COc1ccc(C(=O)NCCC2=CCCCC2)cc1 | 10
Cc1ccc(NC(=S)N(CCN2CCCCC2)Cc2ccco2)cc1Cl | 6
Clc1ccccc1C1=CC(c2ccco2)n2ncnc2N1 (stereo not given) | 30
COc1ccccc1/C=N/N1C(=O)C2C3C=CC(CC3)C2C1=O (stereo not given) | 2
O=C(O)/C(=C\c1cccs1)Sc1nnc(-c2ccc(F)cc2)o1 | 9
Cc1nnc(NC(=O)Cn2nc(C)c3ccccc3c2=O)s1 | 8
CC(C)c1ccc(NC(=S)Nc2ccc(OC(F)(F)F)cc2)cc1 | 10
O=C(COC(=O)CN1C(=O)C2CCCCC2C1=O)Nc1cc(S(=O)(=O)N2CCOCC2)ccc1Cl (stereo not given) | 12
Cc1ccc(N(C(=O)c2cnccn2)C(C(=O)NC2CCCCC2)c2ccc(O)cc2)cc1 (stereo not given) | 22
CC(=O)NC(Cc1ccccc1)C(=O)OCC(=O)c1ccc(Cl)cc1 (stereo not given) | 7
CCn1c(SCC(=O)Nc2nccc(C)n2)nc2ccccc21 | 21
Cc1nc(Nc2ccccc2)sc1-c1ccccc1 | 3
COc1cc(/C=N/NC(=S)NCc2ccccc2)ccc1OCC#N | 16
CCCCN(C)c1c(N2CCC(C(=O)OCC)CC2)c(=O)c1=O | 13
CC(C)C(=O)Nc1nnc(SCC(=O)NCc2ccc3c(c2)OCO3)s1 | -9
O=C(C1CCCO1)N1CCN(C(=S)Nc2cccc(Cl)c2)CC1 (stereo not given) | 13
COc1ccc(C(=O)CSc2nnn(-c3cccc(NC(C)=O)c3)n2)cc1 | 13
O=C1COc2ccc(C(=O)COC(=O)CNC(=O)c3ccccc3)cc2N1 | 5
COc1ccc(OC)c(S(=O)(=O)NCC(=O)O)c1 | 21
Cc1ccccc1Nc1nnc(SCC(=O)NCc2cccs2)s1 | 21
O=C(COC(=O)C12CC3CC(CC(Br)(C3)C1)C2)Nc1cccnc1Cl | 6
COc1ccc(NC(=O)CC2C(=O)N(c3ccccc3)C(=O)N2CCc2cccs2)cc1 (stereo not given) | 3
S=C(Nc1ccc2c(c1)OCO2)Nc1ccccc1Cl | 22
OCCC1CN(C/C(Cl)=C/c2ccccc2)CCN1C1CCCC1 (stereo not given) | 11
CC(=O)N1Cc2ccccc2C(C)CC12CCCC2 (stereo not given) | 19

Compounds listed so far that contain an aryl thioether with sulfur outside any ring, in the order listed:
SMILES | Biofilm kill mix
COc1cc(/C=C(/Sc2nnc(-c3ccc(F)cc3)o2)C(=O)O)ccc1OC(F)F | 2
Cc1ccc(SCc2nc(N)nc(Nc3ccccc3C)n2)c(C)c1 | 16
CC1Cc2ccccc2N1C(=O)CSc1nccc(=O)[nH]1 (stereo not given) | 15
Cc1cc(NC(=O)CSc2nc(-c3ccco3)cc(C(F)(F)F)n2)no1 | 6
Fc1cccc(Cl)c1CSc1ccc(-c2cccnc2)nn1 | 14
O=C(Cc1ccccc1)Nc1ccc(SC(F)F)cc1 | 26
Cc1cc(=O)[nH]c(SCC(=O)NN(c2ccccc2)c2ccccc2)n1 | 3
Cc1nc(SCC(=O)Nc2ccc(OCc3ccccc3)cc2)n[nH]1 | 9
COc1cccc2c(SCC(=O)N/N=C/c3ccccc3)cc(C)nc12 | 15
O=C(O)/C(=C\c1cccs1)Sc1nnc(-c2ccc(F)cc2)o1 | 9
CCn1c(SCC(=O)Nc2nccc(C)n2)nc2ccccc21 | 21
CC(C)C(=O)Nc1nnc(SCC(=O)NCc2ccc3c(c2)OCO3)s1 | -9
COc1ccc(C(=O)CSc2nnn(-c3cccc(NC(C)=O)c3)n2)cc1 | 13
Cc1ccccc1Nc1nnc(SCC(=O)NCc2cccs2)s1 | 21

Compound activity: PubChem BioAssay, PCMD
